VDR inhibitor: inhibitors of human vitamin D receptor; VDR-SRC2-3 peptide fluorescence polarization, 2 h; Potency, µM, without a hit: max response, negative = inhibition, most hits filed as inhibitors; 0.93% of 400,000 active; active = well fitted inhibition curve with a large enough effect; inconclusive = small, poorly fitted or top-dose-only effect, or another doubt; inactive = no such curve, though single readings can be large or run the other way; also: series mostly up to about 120 µM
Target sequence (P11473 whole entry, looked up): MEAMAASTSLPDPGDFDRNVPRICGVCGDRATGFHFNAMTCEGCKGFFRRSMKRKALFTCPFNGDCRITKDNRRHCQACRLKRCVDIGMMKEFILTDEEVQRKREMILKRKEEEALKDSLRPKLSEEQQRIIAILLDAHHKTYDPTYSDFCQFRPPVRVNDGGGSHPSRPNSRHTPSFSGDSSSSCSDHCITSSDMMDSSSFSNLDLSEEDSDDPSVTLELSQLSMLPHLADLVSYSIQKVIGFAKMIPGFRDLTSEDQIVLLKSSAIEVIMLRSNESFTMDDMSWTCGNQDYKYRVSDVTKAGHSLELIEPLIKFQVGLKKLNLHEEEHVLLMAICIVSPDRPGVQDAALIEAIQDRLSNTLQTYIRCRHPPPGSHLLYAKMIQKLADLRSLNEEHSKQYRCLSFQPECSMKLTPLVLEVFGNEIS
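After 23 nl compound addition and a short centrifugation, plates sat for 2 hours at ambient temperature; polarization of fluorescence then indicated loss of VDR binding to peptide SRC2-3.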
* = called active by the depositor; ? = inconclusive; [ ] = another dose, or the depositor's remark. % is scaled to controls: 0 for no effect and ±100 for the full control effect; potency is read from the fitted curve at half-maximal effect. These rows are one share of the data, so the mix of outcomes need not match the whole.

VDR inhibitor	molecule
?	O=C(O)c1ccc(OCCCCCCOC2CCCCO2)cc1 (configuration not stated)
5%	CCC(=O)Nc1cccc(NC(=S)NC(=O)c2ccccc2)c1
11%	CCOc1ccc(N/C(C)=C/C(=O)c2ccc(C)o2)cc1
-8%	Cc1ccc(NC(=O)CN(C)C(=O)COC(=O)[C@@H](NC(=O)c2ccccc2F)C(C)C)cc1
-5%	CN(C)c1nc(NCc2ccccc2)nc(SCC(N)=O)n1
?	CCCCCCC(=O)N1C/C=C\C(c2ccc(OC)cc2)N(Cc2ccc(F)cc2)C(=O)C1 (configuration not stated)
-1%	Cc1cccnc1NC(=O)CNC(=O)c1sc2ccccc2c1Cl
10%	CCOc1ccc(CNC(=O)c2c(C)nn(-c3ccc(F)cc3)c2-n2cccc2)cc1
-6%	Cc1ccc(NC(=O)c2ccc(Cl)c(S(=O)(=O)N3CCc4ccccc43)c2)nc1
15%	COc1ccc(-c2csc(NC(=O)c3ccc(OCC(=O)N4CCOCC4)c(OC)c3)n2)cc1
-2%	C=CCNc1oc(-c2cccs2)nc1S(=O)(=O)c1ccccc1
-22%	CS(=O)(=O)c1ccc(C(=O)OCC(=O)Nc2cccc(S(=O)(=O)N3CCCC3)c2)cc1
-1%	CC(N)(C(=O)O)c1ccc(P(=O)(O)O)cc1 (configuration not stated)
13%	CC(C)CC(=O)Nc1c(C(=O)N2CCN(c3ccccc3)CC2)oc2ccccc12
-4%	Nc1nc2n(n1)C(c1cccc(Br)c1)CC(c1ccccc1)N2 (configuration not stated)
-3%	O=C(O)c1n[nH]c2c1CCCCC2
3%	COc1cc(CNS(=O)(=O)c2ccc3c(c2)CC(C)N3C(C)=O)cc(OC)c1OC (configuration not stated)
-9%	O=[N+]([O-])c1ccc(N2CCN(S(=O)(=O)c3ccccc3)CC2)cc1N1CCc2ccccc2C1
-13%	Cn1c(=O)c2c(nc(N3CCN(c4ccc([N+](=O)[O-])cc4)CC3)n2C)n(C)c1=O
-8%	COc1cccc(CNC(=O)COC(=O)c2c(NC(C)=O)sc(C)c2C)c1
12%	C=CCNc1nc(NCc2ccco2)nc(OCC)n1
7%	COc1ccc(N2CCN(Cc3cc(=O)oc4cc5c(cc34)CCCC5)CC2)cc1
-9%	CC1CCc2sc(C(=O)NN=C3CCC(c4ccccc4)CC3)cc2C1 (configuration not stated)
-27%	CCOC(=O)N1CCN(C(=O)c2cc(S(=O)(=O)N3CCc4ccccc43)ccc2OC)CC1
-2%	CC1CCC(N2CC(=O)N(C3CCCCC3)C(c3ccc(Cl)cc3)C2=O)CC1 (configuration not stated)
1%	Cc1cc(-c2nnc3n2N=C(c2ccccc2Br)CS3)n[nH]1
24%	CCN(CC(=O)Nc1ccccc1-c1ccccc1)Cc1nc2ccccc2c(=O)[nH]1
9%	O=C(CN1C(=O)COc2ccc(S(=O)(=O)N3CCOCC3)cc21)N1CCN(c2cccc(C(F)(F)F)c2)CC1
19%	Cc1cc(S(=O)(=O)N2CCCC2)ccc1OCC(=O)Nc1ccccc1
9%	OC(CNCC1CCCCC1)COc1ccccc1 (configuration not stated)

Some of the entries above, set out differently:
compound,VDR inhibitor
Cc1cccnc1NC(=O)CNC(=O)c1sc2ccccc2c1Cl,-1%
CCOc1ccc(CNC(=O)c2c(C)nn(-c3ccc(F)cc3)c2-n2cccc2)cc1,10%
Cc1ccc(NC(=O)c2ccc(Cl)c(S(=O)(=O)N3CCc4ccccc43)c2)nc1,-6%
COc1ccc(-c2csc(NC(=O)c3ccc(OCC(=O)N4CCOCC4)c(OC)c3)n2)cc1,15%
C=CCNc1oc(-c2cccs2)nc1S(=O)(=O)c1ccccc1,-2%
CS(=O)(=O)c1ccc(C(=O)OCC(=O)Nc2cccc(S(=O)(=O)N3CCCC3)c2)cc1,-22%
CC(N)(C(=O)O)c1ccc(P(=O)(O)O)cc1 (configuration not stated),-1%
CC(C)CC(=O)Nc1c(C(=O)N2CCN(c3ccccc3)CC2)oc2ccccc12,13%
Nc1nc2n(n1)C(c1cccc(Br)c1)CC(c1ccccc1)N2 (configuration not stated),-4%
O=C(O)c1n[nH]c2c1CCCCC2,-3%
COc1cc(CNS(=O)(=O)c2ccc3c(c2)CC(C)N3C(C)=O)cc(OC)c1OC (configuration not stated),3%
O=[N+]([O-])c1ccc(N2CCN(S(=O)(=O)c3ccccc3)CC2)cc1N1CCc2ccccc2C1,-9%
Cn1c(=O)c2c(nc(N3CCN(c4ccc([N+](=O)[O-])cc4)CC3)n2C)n(C)c1=O,-13%
COc1cccc(CNC(=O)COC(=O)c2c(NC(C)=O)sc(C)c2C)c1,-8%

(list continues)
VDR inhibitor	molecule
5%	O=C1N[C@@H](Cc2ccccc2)C(=O)N2[C@@H]3N(S(=O)(=O)c4ccc(F)cc4)c4ccccc4[C@]3(Br)C[C@@H]12
-12%	COCCNc1nnc(SCC(=O)Nc2cc(C)on2)s1
?	O=C(c1ccc(N2CCOCC2)cc1)N1CCCC(Nc2ccccc2)C1 (configuration not stated)
2%	COc1cc(OC)c(NC(=O)CN(C)S(=O)(=O)c2ccc(-c3ccc(=O)[nH]n3)s2)cc1Cl
-10%	O=S(=O)(CCN1CCOCC1)c1ccccc1
-3%	COC(=O)[C@]1(C)N[C@H](CN(C)C(=O)C2CCCCC2)[C@@H]2C(=O)N(Cc3ccccc3)C(=O)[C@@H]21
10%	CS(=O)(=O)c1ccc(Cl)c(NC(=O)C2CC(=O)N(c3ccc4c(c3)OCCO4)C2)c1 (configuration not stated)
7%	Cc1c(NC(=O)CSc2nnnn2C)c(=O)n(-c2ccccc2)n1C
-9%	N#C/C(=C\c1ccccc1O)C(=O)Nc1cccnc1
?	O=C(c1ccccn1)N1CCCC(N2CCN(c3cccc(C(F)(F)F)c3)CC2)C1 (configuration not stated)
-9%	CC(C)N1C(=O)S/C(=C/c2ccc3c(c2)n(C)c(=O)n3C)C1=O
11%	Cc1cc(C)c(C#N)c(Nc2ccccc2Cl)n1
-20%	C/C(=N\Nc1cccc(C(=O)O)c1)c1ccc2c(c1)Nc1ccccc1S2
-4%	CC(NC(=O)/C(=C/c1ccc(OC(F)F)cc1)c1ccccc1)c1ccccc1 (configuration not stated)
-21%	CC1CC(=O)C2=C(C1)Nc1ccccc1SC2c1ccc(F)cc1 (configuration not stated)
-10%	Cc1ccc2c(c1)N(CC(=O)NCc1cccs1)C(=O)C(C)O2 (configuration not stated)
-21%	COc1ccc(C2/C=C\CN(CC3CCCCC3)C(Cc3ccccc3)C(=O)N2Cc2ccc(F)cc2)cc1 (configuration not stated)
?	O=C(O)CCSc1ccc([N+](=O)[O-])cc1[N+](=O)[O-]
-1%	CCOC(=O)C1CCCN(C(=O)Cc2ccc(OC)c(OC)c2)C1 (configuration not stated)
35µM*	O=C(Oc1ccccc1)N1CCC[C@@]2(CCN(c3ccccc3)C2)C1
-8%	COc1ccccc1N1CCN(C(=O)c2cc(C(=O)N3CCN(c4ccccc4OC)CC3)cc([N+](=O)[O-])c2)CC1
-1%	O=C(c1ccc2c(Cl)c3c(nc2c1)CCCC3)N1CCC(N2CCCCC2)CC1
10%	FC(F)(F)c1ccc(-n2cn[nH]c2=S)cc1
-10%	COc1ccc(NC(=O)c2oc3ccccc3c2CSC)cn1
4%	CCn1c(SCC(=O)c2ccc3ccccc3c2)nnc1-c1ccco1
-15%	CCOc1ccc(NC(=O)C2(c3ccc(OC)c(OC)c3)CCCC2)cc1
-12%	O=C(Cc1ccc(-n2c(=O)c3ccccc3n(Cc3ccccc3Cl)c2=O)cc1)NCC1CCCO1 (configuration not stated)
8%	CC1CC(C)CN(C(=O)Cn2c(=O)oc3cc(S(=O)(=O)N4CCCC4)ccc32)C1 (configuration not stated)
-24%	Cc1cccc2nc(Cn3c(=O)n(CCCC(=O)NCc4ccco4)c(=O)c4ccccc43)cc(=O)n12
2%	O=C(OCn1nnc2ccccc2c1=O)c1cn(-c2ccccc2)nc1-c1cccnc1

VDR inhibitor	molecule
-11%	CCOC(=O)c1c(NC(=O)c2cccs2)sc2c1CC(C)(C)OC2
-4%	CC(C)Oc1ccc(Oc2ccc(C(F)(F)F)cn2)cc1
-6%	COc1cccc(CNC(=O)c2cc3oc4ccccc4c3n2C)c1OC
-3%	CC(=O)Nc1nc2c(C)c(Cl)ccc2s1
6%	COc1ccccc1NC(=O)CCN1CCC(C(N)=O)CC1
-1%	CC1CC(C)(C)CC2(C1)NC(=O)N(CC(=O)Nc1cc(C(F)(F)F)ccc1N1CCCCC1)C2=O (configuration not stated)
?	O=C(O)CN1C(=O)/C(=C\c2cccc(OCc3ccc(Cl)cc3Cl)c2)SC1=S
16%	Nc1ccn(CC(=O)NCCc2ccccn2)c(=O)n1
-20%	COc1ccc(-c2cn(CCC(=O)NCc3ccc(C)cc3)c(CCN)n2)cc1
?	COC(=O)c1ccc(C2NC(c3ccc4c(c3)OCO4)=CC(c3ccccc3O)N2)cc1 (configuration not stated)
-4%	CCOC(=O)CN(C(=O)CCC(=O)Nc1cc(C)on1)C(C(=O)NC1CCCC1)c1cccnc1 (configuration not stated)
14%	Cc1ccc(COc2ccc(C)nc2[N+](=O)[O-])cc1
0%	O=C(NCC(=O)N(c1cccc(F)c1)C(C(=O)NC1CCCC1)c1cccnc1)c1ccco1 (configuration not stated)
-10%	Cc1ccc2cc(C)c3nnc(SCC(=O)c4cccs4)n3c2c1C
1%	CSc1ccccc1OCc1cc(C(=O)N(C)C(C)c2nc(C)cs2)no1 (configuration not stated)
-5%	CCCCn1c(=O)[nH]c(=O)c2c1nc(-c1ccc(C(F)(F)F)cc1)n2C
22%	Cc1cc(NC(=O)c2cccc(C(=O)Nc3cc(C)on3)n2)no1
4%	O=C1C=C(c2ccc(OC(F)(F)F)cc2)C[C@@H](c2ccc(Cl)cc2)C1
1%	Cc1nnc2sc(SCc3cccc(Cl)c3)nn2c1=O
-5%	Cc1cccc(CN2C(=O)c3ccccc3S(=O)(=O)c3ccc(C(=O)NCCC4=CCCCC4)cc32)c1
-13%	O=C(NCC1CCCO1)c1ccc(NC(=O)c2cccc(Br)c2)cc1 (configuration not stated)
4%	CCn1cc(C=O)c2cc(S(=O)(=O)N3CCOCC3)ccc21
-6%	COc1ccc(C2(CNC(C)=O)CCOCC2)cc1OC
-16%	O=C(NC1CC1)C1=C[C@H](c2c[nH]c3ccccc23)C[C@H](OCc2ccc(CO)cc2)O1
-9%	Cc1ccc(S(=O)(=O)CCc2nnc(N)s2)cc1C
-9%	Cc1nn(-c2ccccc2)c(N2CCCC2)c1/C=C1\N=C(c2ccc(OC(C)C)cc2)OC1=O
34%[activator]	O=C(Nc1ncccn1)c1cccc(F)c1
-10%	O=C(Nc1nc(-c2ccccn2)cs1)c1ccc(-c2ccccc2F)o1
-19%	O=C1CCCCN1CC(=O)N1CCCC(N2CCN(c3ccccc3F)CC2)C1 (configuration not stated)
-20%	O=C1N[C@@H](Cc2ccccc2)COC(=O)[C@@H](Cc2ccc(F)cc2)CC/C=C/C[C@H]1CC(=O)N(CCO)Cc1ccccc1

VDR inhibitor	molecule
3%	NC(=O)CSc1nnc(-c2ccc(S(=O)(=O)N3CCCC3)cc2)o1
-12%	CCOC(=O)c1c(-c2ccc(C)o2)csc1NC(=S)NC(=O)c1cccs1
4%	O=C(Nc1ccon1)c1ccc(F)c(S(=O)(=O)N2CCCCC2)c1
-6%	COc1ccc(NS(=O)(=O)c2ccc(C)c(NC(=O)c3ccc(C)c(S(=O)(=O)N4CCOCC4)c3)c2)cc1
-10%	COc1ccc(C)cc1NC(=O)CSc1nnc2ccc(-c3ccncc3)nn12
-14%	Cc1ccc(C)c(NC(=O)c2cc3ccccn3n2)c1
-4%	O=C(Nc1cccc(Cl)c1Cl)c1cc(S(=O)(=O)N2CCCc3ccccc32)ccc1F
-7%	COc1ccccc1NC(=S)N1CCN(c2ccccc2F)CC1
-4%	CC(=O)c1ccc(S(=O)(=O)N2CCN(c3nc(-c4ccccc4)nc4ccccc34)CC2)cc1
10%	Cc1ccc(NC(C(N)=O)c2c(C)[nH]c(=O)[nH]c2=O)cc1 (configuration not stated)
9%	COC(=O)[C@H](Cc1ccccc1)NC(=O)O[C@@H]1C(=O)c2cc(Br)ccc2O[C@H]1c1cccc(OC)c1
7%	CCn1c(=S)sc2c(=O)n(CC(=O)NC(C)CCc3ccccc3)c(C)nc21 (configuration not stated)
-2%	O=C(C[C@@H]1C/C=C\CCC(=O)OC[C@@H]2CCCN2C1=O)NCCO
?	COc1ccc(C(=O)NC(=S)NCc2ccccc2)cc1
?	COc1ccc(C(=O)n2nc(-c3ccco3)nc2SC)cc1OC
-24%	CCC(C(=O)Nc1ccc(S(=O)(=O)N2CCN(C)CC2)cc1)c1ccccc1 (configuration not stated)
-19%	CCCOc1ccc(C(C(=O)OCCN(CC)CC)c2ccccc2)cc1 (configuration not stated)
2%	Cc1ccc(CNC(=O)C(C)n2nc(C)c3sc4ccccc4c3c2=O)cc1 (configuration not stated)
-5%	CN(C)N=Nc1ccc(S(=O)(=O)N2CCSC2C(=O)O)cc1 (configuration not stated)
8%	Cc1ccc(NC(=O)CS(=O)CC(=O)Nc2ccc(N3CCOCC3)cc2)cc1Cl (configuration not stated)
6%	COc1cccc([C@@H]2Oc3ccc(OC)cc3C(=O)[C@H]2OC(=O)NCCOc2ccccc2)c1
-11%	COc1ccc(-c2nc3c4c(ncn3n2)-c2ccccc2CC42CCCC2)cc1
-11%	O=C(O)c1ccc(S(=O)(=O)N2CCC(n3nnc4cc(C(F)(F)F)ccc43)CC2)cc1
-11%	Cc1coc2cc3oc(=O)c(CCC(=O)N4CCC(C(=O)O)(c5ccccc5)CC4)c(C)c3cc12

From PubChem
